Bioassay records as filed in PubChem.
D2 agonist: activates the human D2 dopamine receptor | P14416 | DiscoveRx PathHunter D2 beta-arrestin, luminescence, 90 min; 100% = 57 uM dopamine signal | activation, % (no concentration beside the values) | 360,000 compounds, 0.084% hits; in the data active = activation above about 40%; inconclusive = about 15% to 40%; inactive = below about 15%; note: compound concentration not given in the record; the text of the record calls up to 30% inactive
Target sequence (P14416 whole entry, looked up): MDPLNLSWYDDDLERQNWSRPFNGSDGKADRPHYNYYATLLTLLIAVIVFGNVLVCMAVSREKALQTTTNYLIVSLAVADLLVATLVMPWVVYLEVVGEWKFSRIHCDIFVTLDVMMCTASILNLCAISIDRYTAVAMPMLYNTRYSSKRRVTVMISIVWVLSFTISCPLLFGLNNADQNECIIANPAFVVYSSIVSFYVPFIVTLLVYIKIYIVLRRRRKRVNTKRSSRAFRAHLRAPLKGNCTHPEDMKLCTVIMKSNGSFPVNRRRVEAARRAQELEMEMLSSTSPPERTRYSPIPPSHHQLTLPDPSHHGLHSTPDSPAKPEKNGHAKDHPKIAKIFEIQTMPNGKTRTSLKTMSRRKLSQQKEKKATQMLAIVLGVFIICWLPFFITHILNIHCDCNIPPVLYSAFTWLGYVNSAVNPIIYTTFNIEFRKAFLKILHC
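Agonist mode: compounds alone added to overnight-plated D2 PathHunter cells for 90 min at 37 C, with 57 uM final dopamine (EC100) defining full response. Beta-arrestin recruitment detected by chemiluminescent reagent, read after 1 h at ambient temperature.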
D2 potentiator: positive allosteric modulators of human D2 dopamine receptor; 360,000 compounds, 0.23% hits; AID 624464; P14416; potentiation, % (no concentration beside the values); DiscoveRx D2 beta-arrestin cells, luminescence, 90 min; 100% = 57 uM dopamine signal; active = potentiation of 50% or more; inconclusive = 30% to 50%; inactive = 30% or less;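 note: compound concentration not given in the record; tested on top of an EC20 dose of dopamine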
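D2 cells co-treated with compound plus 50 nM dopamine (EC20) for 90 min at 37 deg C to detect potentiation. Beta-arrestin recruitment was read as enzyme-fragment luminescence after 1 h at ambient temperature. Full response was set by 57 uM dopamine.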
TRPML1 ag: activates the human TRPML1 channel | Q9GZU1 | TRPML1-expressing cells, Ca2+ dye fluorescence, FDSS; host cell line not named in the record; reference of the full effect not given here | activation, % (test concentration not listed) | 410,000 compounds, 0.12% hits | AID 624414; in the data active = activation above about 50%; inconclusive = about 30% to 50%; inactive = below about 30%; note: 0% is about no effect; the text of the record puts the active cut at 80%
Target sequence (Q9GZU1 whole entry, looked up): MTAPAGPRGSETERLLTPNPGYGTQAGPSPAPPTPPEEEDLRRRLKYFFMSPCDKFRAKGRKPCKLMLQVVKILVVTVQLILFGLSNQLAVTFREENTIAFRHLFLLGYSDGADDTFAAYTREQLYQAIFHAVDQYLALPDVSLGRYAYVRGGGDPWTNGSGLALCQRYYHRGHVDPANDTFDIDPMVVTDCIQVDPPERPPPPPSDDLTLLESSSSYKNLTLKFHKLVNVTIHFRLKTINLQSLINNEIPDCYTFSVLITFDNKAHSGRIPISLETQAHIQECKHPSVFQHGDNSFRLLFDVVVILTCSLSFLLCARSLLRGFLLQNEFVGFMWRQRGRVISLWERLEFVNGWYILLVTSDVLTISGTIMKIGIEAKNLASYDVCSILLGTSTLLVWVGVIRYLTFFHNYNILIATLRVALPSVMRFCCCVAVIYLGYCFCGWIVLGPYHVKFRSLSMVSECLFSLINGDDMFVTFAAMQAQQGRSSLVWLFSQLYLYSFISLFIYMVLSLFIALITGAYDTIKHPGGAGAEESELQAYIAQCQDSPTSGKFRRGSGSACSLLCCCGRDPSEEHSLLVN
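Tetracycline-induced TRPML1-DL cells are seeded and incubated overnight before loading with a no-wash Ca2+ dye and quencher. Agonist activity is taken from the 110 s fluorescence read following compound pin-transfer on an FDSS, before EC80 54-4 challenge.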
Six1-Eya2 blk: Six1/Eya2 interaction inhibition | Q15475+O00167 | AlphaScreen GST-Six1/His-Eya2 binding, biochemical; stronger effect = lower value; control for the full effect not named in the record | activity change, % (no concentration beside the values) | 360,000 compounds, 0.56% hits | AID 651725; in the data active = activity change below about -65%; inconclusive = about -30% to -65%; inactive = above about -30%; note: % is set by controls: 0 for no effect and ±100 for the full control effect
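GST-Six1 + His-Eya2 (5X stock: 250/500 nM); Tris pH 8.0, 300 mM NaCl, 0.05% BSA, 0.02% Tween 20; GSH donor/Ni acceptor beads; 1 h 37 °C dark; AlphaScreen readout.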
CtBP-E1A blk: CtBP/E1A binding inhibition; activity change, % (test concentration not listed); 340,000 compounds, 0.49% hits; AlphaScreen GST-E1A/His-CtBP binding, 1536-well; stronger effect = lower value; control for the full effect not named in the record; AID 651724; in the data active means activity change below about -65%; inconclusive means about -30% to -65%; inactive means above about -30%; note: % is set by controls: 0 for no effect and ±100 for the full control effect
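AlphaScreen with 125 nM GST-E1A and 125 nM His-CtBP (5X stocks) in Tris pH 8.0, 300 mM NaCl, BSA, Tween 20, TCEP. Compounds preincubated 2 h at 37 deg C, then glutathione donor/nickel acceptor beads added for 1 h at 37 deg C in dark.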
PINK1 modulator: modulators of PINK1 expression; 410,000 compounds, 0.2% hits; PINK1 immunofluorescence, high-content cytometry, 24 h; Potency, µM (highest dose often 76.6 µM), without a hit: top-dose activation (PINK1 increase), hits mostly activators; active = well fitted activation curve with a large enough effect; inconclusive = small, poorly fitted or top-dose-only effect; inactive = flat fitted curve, though single readings scatter; cell line not stated here;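 note: potency is the fitted concentration of half-maximal effect; % of control where 0% means no effect; nearly all actives have a fitted effect of over 65% in size; a mitochondrial uncoupler was the plate control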
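Fluorescence from anti-PINK1 antibody, together with nuclear and cell stains, was scanned on a laser-scanning cytometer. Before staining, stable-line cells were incubated 24 hours with compounds at 5 concentrations; primary antibody 12 h at 10 degrees C.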
Numbers without * were called inactive; u = inconclusive; x = not tested or not shown; [ ] = dose if it differs, or a comment.

SMILES | D2 agonist | D2 potentiator | TRPML1 ag | Six1-Eya2 blk | CtBP-E1A blk | PINK1 modulator
CN(Cc1cccc(F)c1)C(=O)c1ccc(S(=O)(=O)N2CCCCCC2)cc1 | 5.8 | 4 | 1.4 | -5 | -5 | -3.4%
CC(=O)c1ccc(N2CCN(C3CCC(C(C)(C)C)CC3)CC2)cc1 (stereo not given) | -2.5 | -23 | 1.7 | 5 | 6 | 10%
O=C(CC1CCCC1)Nc1nnc(C2CC2)s1 | 1.9 | 13 | -1.2 | 1 | 2 | 0.1%
COc1ccccc1C1CCN(C(=O)c2cccc([N+](=O)[O-])c2)CC1 | -1.4 | -5 | 0.5 | -2 | -2 | -1.8%
O=C(CSc1ncnc2c1cnn2-c1ccccc1Cl)N1CCN(C(=O)c2ccco2)CC1 | -0.8 | 0 | 1.1 | -4 | 0 | 0.2%
CC(C)(C)c1ccc(C(O)c2ncc(-c3ccc(F)cc3)[nH]2)cc1 (stereo not given) | -5.6 | -4 | 0.3 | 0 | 15 | 27%
CC(C)N(C(=O)Cn1c(SCC(=O)NC2CC2)nc2ccccc21)C(C)C | -3.5 | -5 | -0.6 | -1 | 7 | 0.0%
Cc1ccc(S(=O)(=O)N(C)C)cc1NC(=O)C1CCN(C(=O)Nc2ccccc2)CC1 | 0.2 | -30 | 2.0 | 5 | -9 | 0.6%
COc1cccc(CNC(=O)C2=Cc3cccc(OC)c3OC2)c1 | 3.1 | 5 | -0.7 | -13 | 9 | 1.1%
COc1ccc(-n2ccnc(SCC(=O)NCc3ccccc3Cl)c2=O)cc1 | 0.3 | -3 | 0.4 | -2 | x | 0.1%
CC(/C=C/c1ccccc1)=N\NC(=O)Cn1nc(C)cc1C | -4.9 | -5 | -0.7 | -2 | -10 | 2.7%
COc1ccccc1N1CCN(C(=O)NCc2cccc(C(F)(F)F)c2)CC1 | -0.5 | 0 | 2.5 | 7 | 2 | 1.8%
COc1cc(/C=N/NC(=S)Nc2cccc(Cl)c2C)ccc1OCC(=O)N1CC(C)OC(C)C1 (stereo not given) | 1.8 | -1 | 2.0 | -3 | -5 | 2.3%
O=c1[nH]n(Cc2ccccc2)c2ccccc12 | 5.0 | -4 | 0.7 | -6 | -12 | 0.4%
C=CCOC(=O)C1=C(C)OC(N)=C(C#N)C1c1ccc(OC)c(CSc2ccccn2)c1 (stereo not given) | -5.0 | -2 | 2.1 | 2 | x | -0.4%
N#C/C(=N\Nc1ccc(S(=O)(=O)N2CCCCC2)cc1)C(N)=S | -7.3 | -14 | 0.1 | 28 | -6 | 1.9%
CN(CC(=O)Nc1ccc(Cl)c(C(F)(F)F)c1)C(=O)C1CCCO1 (stereo not given) | 1.1 | -4 | 4.6 | 2 | -6 | 2.6%
CCC1Oc2ccc(C)cc2N(CC(=O)NCC2COc3ccccc3O2)C1=O (stereo not given) | 3.4 | -3 | -0.5 | -6 | 5 | 2.3%
Cc1c(Cl)cccc1NC(=S)NCCc1ccccn1 | -2.6 | -8 | -0.4 | 6 | -2 | -0.4%
Cc1cc(C(=O)Nc2c(C)nn(Cc3ccccc3)c2C)on1 | 6.7 | -2 | -0.9 | 5 | 3 | 2.2%
Cn1c(C2CCCCC2)nc2c1c(=O)[nH]c(=O)n2Cc1ccccc1 | -6.1 | -2 | 1.3 | 0 | x | 1.5%
O=C(NCCc1cnc[nH]1)Nc1cccc(C(F)(F)F)c1 | -2.6 | -65 | -0.5 | -3 | x | -1.5%
Cc1cc(C)c2cc(C#N)c(NCCOC(=O)c3ccccc3C)nc2c1 | 1.5 | -1 | 1.4 | 89 | 2 | 0.8%[38.3 µM]
C[C@]12c3[nH]c4cc(-c5ccco5)ccc4c3CCN1C(=O)[C@@H](CC(=O)NCCN1CCOCC1)C[C@@H]2C(=O)N1CCCCC1 | 1.0 | -5 | -0.2 | -7 | -6 | 2.0%
CCC(C)(C)NC(=O)C(c1cccnc1)N(CCOC)C(=O)Cn1nnc2ccccc21 (stereo not given) | -1.6 | -5 | -0.1 | 4 | 2 | 2.7%

Profiles, looked up by structure:
COc1cccc(CNC(=O)C2=Cc3cccc(OC)c3OC2)c1 reads D2 agonist: 3.1; D2 potentiator: 5; TRPML1 ag: -0.7; Six1-Eya2 blk: -13; CtBP-E1A blk: 9; PINK1 modulator: 1.1%
CC(/C=C/c1ccccc1)=N\NC(=O)Cn1nc(C)cc1C reads D2 agonist: -4.9; D2 potentiator: -5; TRPML1 ag: -0.7; Six1-Eya2 blk: -2; CtBP-E1A blk: -10; PINK1 modulator: 2.7%
COc1ccc(-n2ccnc(SCC(=O)NCc3ccccc3Cl)c2=O)cc1 reads D2 agonist: 0.3; D2 potentiator: -3; TRPML1 ag: 0.4; Six1-Eya2 blk: -2; CtBP-E1A blk: x; PINK1 modulator: 0.1%

Copied from the list.
CC(C)(C)c1ccc(C(O)c2ncc(-c3ccc(F)cc3)[nH]2)cc1 (stereo not given) | D2 potentiator: -4
CC(C)N(C(=O)Cn1c(SCC(=O)NC2CC2)nc2ccccc21)C(C)C | D2 potentiator: -5

Next part:
SMILES | D2 agonist | D2 potentiator | TRPML1 ag | Six1-Eya2 blk | CtBP-E1A blk | PINK1 modulator
CC(=O)c1c(C)oc(C)c1CSCc1ccc(C(=O)O)o1 | -1.9 | -10 | -0.6 | u | -12 | 9.4%
COc1cccc(NC(=O)Cn2c(=O)n(C)c(=O)c3sc4c(c32)COC(C)(C)C4)c1 | -0.8 | -5 | 1.6 | 1 | x | 2.7%
Cc1cc(S(=O)(=O)N2CCCC2)ccc1OCC(=O)Nc1ccc(C(N)=O)cc1 | 0.8 | 7 | -0.7 | -11 | x | 1.9%
Cc1ccc(Cl)cc1N1CCN(c2cccc[n+]2C)CC1 | -2.4 | -3 | -0.8 | 0 | 0 | 1.6%
CCOc1ccc2nc(NCCCNS(=O)(=O)c3ccc(C)cc3)c(C#N)cc2c1 | 5.7 | 5 | 2.7 | 0 | 50 | 5.2%[38.3 µM]
O=C(Nc1ccccc1)C1=C[C@@H](C2CCCCC2)C[C@@H](OCCCCO)O1 | -0.2 | -13 | -0.6 | -5 | 0 | 3.7%
CCN(CC)C(=O)COc1coc(CN2CCN(c3cccc(Cl)c3)CC2)cc1=O | 7.1 | -7 | 0.7 | 6 | 6 | -0.4%
C#CCNC(=O)C1=C[C@H](C2CCCCC2)C[C@H](OCc2ccc(CO)cc2)O1 | 3.8 | 2 | -0.3 | 2 | 4 | 1.4%
COc1c([N+](=O)[O-])c(=O)oc2ccccc12 | -7.5 | -1 | -1.4 | 1 | 1 | 0.0%
O=C1CC(c2ccccc2Cl)C2=C(COC2=O)N1 (stereo not given) | 2.1 | 11 | -0.9 | 3 | 5 | -0.5%
CCOC(=O)CCn1c(=S)n(CCC(=O)OCC)c2ccccc21 | -4.0 | -20 | -0.8 | 9 | x | 0.8%
COC(=O)c1ccc(Oc2nc(NC(C)C)nc(SC)n2)cc1 | -3.1 | -8 | -0.5 | -5 | 6 | 3.7%
Fc1cccc(C2CCCCN2Cc2nc(C3CC3)no2)c1 (stereo not given) | 2.3 | -6 | 0.4 | 4 | 14 | 0.7%
Nc1ccc(C(=O)OCC(=O)N2CCN(C(=O)c3ccco3)CC2)cc1[N+](=O)[O-] | -4.6 | -22 | 0.1 | 5 | 18 | 2.4%
COc1ccc(S(=O)(=O)N(C)C[C@H]2Oc3ccc(NS(=O)(=O)c4cccs4)cc3CC(=O)N([C@H](C)CO)C[C@H]2C)cc1 | -0.6 | -2 | 0.1 | 1 | 0 | 0.8%
COc1cccc(CNC(=O)c2cc(S(=O)(=O)N3CCCC3)cn2C)c1 | -0.1 | 5 | 0.3 | 11 | 17 | -0.2%
CC(=O)Nc1ccc(S(=O)(=O)NCC(=O)OCC(=O)N2CCN(c3ccccc3)CC2)cc1 | -2.3 | -10 | 0.3 | 7 | -5 | 1.4%
COc1ccc(S(=O)(=O)Cc2ccc(C(=O)N3CCN(c4ncccn4)CC3)o2)cc1 | -1.1 | -7 | 0.3 | 4 | 0 | 0.2%
CC(C)(C)[C@H]1COC(=O)CC/C=C\C[C@@H](CC(=O)N(CCO)Cc2ccccc2)C(=O)N1 | -2.1 | -5 | -0.5 | -2 | 1 | -0.8%
CC[C@@H]1CC2=C(C(=O)OC(C)(C)O2)[C@H](c2ccc(F)cc2)O1 | -3.7 | -6 | -0.5 | 0 | 4 | 1.8%
C=CCNCCCCOc1ccc(Br)cc1C | -1.6 | -29 | 0.3 | 16 | 2 | 16%
CNC(=S)NNc1nc(N2CCOCC2)nc(N2CCOCC2)n1 | -0.2 | 2 | -0.7 | 15 | -2 | 1.1%
COc1ccc(/C=C/c2noc(-c3ccccc3O)n2)cc1 | -2.5 | 6 | 0.3 | -2 | -16 | u
COc1cc(OC)nc(NC(=O)C(C)C)n1 | -2.1 | -2 | 0.2 | 3 | -7 | 0.9%
O=C(COC(=O)C1CCN(S(=O)(=O)c2c(Cl)cccc2Cl)CC1)NCc1ccco1 | -4.7 | -15 | 0.0 | 16 | 0 | -1.1%
Next part:
SMILES | D2 agonist | D2 potentiator | TRPML1 ag | Six1-Eya2 blk | CtBP-E1A blk | PINK1 modulator
Cc1no[n+]([O-])c1COc1cccc(/C=N/Nc2nncn2N)c1 | 3.1 | -4 | 0.8 | -6 | u | 8.8%
CC(NC(=O)CCc1nnc(Cc2cccc(C(F)(F)F)c2)o1)C1CC1 (stereo not given) | -0.6 | -3 | -0.5 | 0 | 13 | -0.7%
CN(C(=O)COC(=O)c1ccc2ccccc2n1)C1CCS(=O)(=O)C1 (stereo not given) | -0.5 | -7 | 1.5 | 8 | 8 | 2.8%
O=C(c1cn(-c2ccccc2)nc1-c1ccc(Br)cc1)N1CCOCC1 | -2.4 | -20 | -0.6 | 0 | 3 | 6.7%
Cc1ccc(NC(=O)c2cnn(-c3ccccc3)c2NC(=O)c2ccco2)cc1C | -3.0 | 4 | 0.5 | -1 | -3 | 1.2%
O=C(O)C1CC=CCC1C(=O)NCc1ccc(Cl)c(Cl)c1 (stereo not given) | -4.2 | -13 | 0.4 | -1 | -2 | 1.3%
Cc1ncsc1CCOC(=O)c1ccc(N2CCOCC2)c([N+](=O)[O-])c1 | 0.9 | -8 | 1.3 | 1 | 3 | -1.3%
CCCC1CCc2c(sc(NC(=O)c3cccs3)c2C(N)=O)C1 (stereo not given) | -1.8 | -8 | -0.5 | 7 | 4 | 13%[38.3 µM]
COc1ccc(OCc2cc(C(=O)N(C)CCC3CCOCC3)no2)c(Cl)c1 | -5.8 | -5 | 0.8 | 2 | 2 | 0.5%
CC(C)c1c(C(=O)N/N=C/c2ccccc2C(=O)O)nnn1-c1nonc1N | -9.3 | -7 | -0.6 | 16 | 19 | 0.4%
CC(Sc1nnnn1C)C(=O)Nc1ccc2c(c1)OCCO2 (stereo not given) | -3.3 | -3 | -0.6 | 8 | 1 | 1.6%
O=C(c1ccccn1)N(Cc1ccco1)C1(C(=O)NC2CCCCC2)CCCCC1 | -0.7 | -12 | -0.2 | 1 | 2 | -2.5%
